Bioassay records from PubChem.
GIRK2 act: activators of human GIRK2 potassium channels; HEK293-GIRK2 thallium flux, Thallos fluorescence; hit rate 0.05% among 63,000; calls only for hits at 25 µM;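 active means among the strongest 0.2% of first-round signals and kept after retests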;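 further: first round at about 10 µM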
Target sequence (P48051 whole entry, looked up): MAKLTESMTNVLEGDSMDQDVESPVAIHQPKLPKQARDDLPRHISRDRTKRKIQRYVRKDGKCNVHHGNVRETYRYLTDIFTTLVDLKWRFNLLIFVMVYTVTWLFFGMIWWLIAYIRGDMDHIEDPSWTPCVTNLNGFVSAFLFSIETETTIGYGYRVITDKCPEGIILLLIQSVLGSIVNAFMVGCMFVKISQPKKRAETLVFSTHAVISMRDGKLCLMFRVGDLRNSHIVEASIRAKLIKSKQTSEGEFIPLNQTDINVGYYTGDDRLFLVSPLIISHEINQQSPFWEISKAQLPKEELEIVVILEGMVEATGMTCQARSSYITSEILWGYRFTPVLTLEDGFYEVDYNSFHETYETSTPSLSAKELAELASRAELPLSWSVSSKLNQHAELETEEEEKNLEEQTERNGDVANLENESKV
Calls only; i = inactive. An excerpt, so the mix of outcomes need not match the whole.

SMILES	GIRK2 act
Cc1ncn(CC(=O)N2CCC(c3nnc(-c4ccco4)s3)CC2)c(=O)c1C	i
CC(C)c1nnc(C2CCN(CC(=O)NCc3ccco3)CC2)o1	i
Cc1ccc(/C=C/S(=O)(=O)N2CC(c3nc(-c4cccc(Cl)c4)no3)C2)cc1	i
O=C(CSc1nnc(N2CCN(C(=O)C34CC5CC(CC(C5)C3)C4)CC2)s1)Nc1ccccc1	i
O=c1cc(CN2CCN(CCO)CC2)c2cc(Cl)c(O)cc2o1	i
Cc1cc(C)cc(-n2cc(C(=O)N3CCC(NC(=O)c4cccs4)CC3)nn2)c1	i
CCOC(=O)C1CCN(Cc2cc(=O)oc3cc4c(cc23)CCC4)CC1	i
COc1ccc(S(=O)(=O)N2CCCOC2CNC(=O)C(=O)NC2CCCC2)cc1OC (centres undefined)	i
Cc1ccc(S(=O)(=O)NCC(O)c2ccc3c(c2)CCO3)s1 (centres undefined)	i
Cn1c(=O)n(CC(=O)O)c(=O)c2c1nc1n2CCCN1c1ccc(Oc2ccccc2)cc1	i
Cc1ccc(Cl)cc1S(=O)(=O)NCC1(c2cccs2)CCOCC1	i
Cc1cc(C)c(NC(=O)CCc2c(C)nn(-c3nc(C)c(C)c(=O)[nH]3)c2C)c(C)c1	i
O=C(NCc1cccc2ccccc12)NCC(O)(c1ccccc1)C1CC1 (centres undefined)	i
COc1cccc(OCCn2c(C3CC(=O)N(C(C)(C)C)C3)nc3ccccc32)c1 (centres undefined)	i
O=c1c([N+](=O)[O-])c(NCCCn2ccnc2)c2ccccc2n1-c1ccccc1	i
O=C(N1CCC(CSC2=NCCS2)CC1)C12CC3CC(CC(C3)C1)C2	i
CCCCN1C(=O)CCc2cc(NC(=O)c3ccc(OC)c(OC)c3OC)ccc21	i
Cn1cc(C(=O)NCc2ccccc2)c(S(=O)(=O)N2CCN(c3cccc(Cl)c3)CC2)n1	i
Cc1ccc(N2CC(C(=O)Nc3cc(C4CC4)nn3-c3nc(C)c(C)c(=O)[nH]3)CC2=O)cc1 (centres undefined)	i
Cc1cccc(C)c1NC(=O)Cn1nc2c3cc(-c4ccc(Cl)cc4)nn3ccn2c1=O	i
COc1ccc2oc(=O)c(C(=O)OCCN3CCN(S(=O)(=O)c4ccccc4)CC3)cc2c1	i
CCc1cc(=O)oc2c(C)c(OC(C)C(=O)NCCC(=O)O)ccc12 (centres undefined)	i
O=C(CCC(=O)c1ccccc1)NCC#CCOc1cccc(C(F)(F)F)c1	i
COc1ccc(-c2c(-c3ccc(OC)cc3O)ncnc2C(F)(F)F)cc1	i
CCN(CC)C(=O)Oc1ccc2c(c1)O/C(=C\c1cc(Cl)cc3c1OCOC3)C2=O	i
O=C(NCc1ccccc1)NCC1CCN(C(=O)c2ccoc2)CC1	i
Cc1cc(C)n(-c2cc(SCC(=O)Nc3ccccc3Br)ncn2)n1	i
COCCn1c(C(=O)NCC(O)CO)cc2c(=O)n(C)c(=O)n(C)c21 (centres undefined)	i
CC(C)c1ccc(N(Cc2ccc(Cl)cc2)S(=O)(=O)c2cccn3cnnc23)cc1	i
CCCNC(=O)Cn1c(C)nc2c(c1=O)CN(Cc1ccccc1)CC2	i
CCOc1ccc2ncc(C#N)c(N3CCC(C(=O)N4CCc5ccccc5C4)CC3)c2c1	i
COc1ccc(S(=O)(=O)Nc2ccc3c(c2)N(S(C)(=O)=O)CCC3)cc1OC	i
CN=C(NC#N)NCCSCc1nc[nH]c1C	i
Cc1cc(C)cc(N(C)S(=O)(=O)c2ccsc2-c2nc(-c3ccncc3)no2)c1	i
CCOC(=O)Cc1csc(NC(=O)CNC(=O)c2c[nH]c3ccccc23)n1	i
O=C(Nc1ccc2c(c1)OCO2)N1CCN(Cc2nnnn2-c2ccc(F)c(F)c2)CC1	i
CCCCCCCCCC(=O)OC1C(OC2(CO)OC(CO)C(O)C2OC(=O)CC(C)C)OC(CO)C(OC(=O)C(C)C)C1OC(=O)C(C)C (centres undefined)	i
Cc1ccnc(NS(=O)(=O)c2cc(C)c(C)cc2C)c1	i
O=C(NC1CCN(c2ccc(-c3ccccc3F)nn2)C1)C1(c2ccccc2)CC1 (centres undefined)	i
O=C(c1ccc2nsnc2c1)N(Cc1ccoc1)Cc1cccs1	i

Quoted from the listing for reference:
SMILES	GIRK2 act
CCOc1ccc2ncc(C#N)c(N3CCC(C(=O)N4CCc5ccccc5C4)CC3)c2c1	i
COc1ccc(S(=O)(=O)Nc2ccc3c(c2)N(S(C)(=O)=O)CCC3)cc1OC	i
CN=C(NC#N)NCCSCc1nc[nH]c1C	i

Reprinted at random: 2 records from the list, in no set order.
SMILES	GIRK2 act
O=C(NC1CCN(c2ccc(-c3ccccc3F)nn2)C1)C1(c2ccccc2)CC1 (centres undefined)	i
O=C(Nc1ccc2c(c1)OCO2)N1CCN(Cc2nnnn2-c2ccc(F)c(F)c2)CC1	i

The listing continues.
SMILES	GIRK2 act
Cc1ccc(S(=O)(=O)c2nnn(-c3ccc(Cl)cc3)c2C)cc1	i
Cc1cc(C(=O)NC(C)Cc2cccs2)c(C)o1 (centres undefined)	i
CC(C)NC(=O)Cc1ccc(-n2c(=O)c3ccccc3n(CC(=O)NCc3ccco3)c2=O)cc1	i
CCNC(=O)C1CCCN(c2nc3c(-c4ccccc4)csc3c(=O)[nH]2)C1 (centres undefined)	i
Cc1cc(NC(=O)N2CCCCC2)no1	i
O=C(NCCNS(=O)(=O)Cc1ccccc1)c1ccc(NC(=O)C2CCCC2)cc1	i
Cc1nnc(NC(=O)CSc2ncc(-c3ccccc3)n2C2CCCCC2)s1	i
O=C(CN1CCC(Cn2cnc3ccccc32)CC1)N1CCC(Cc2ccccc2)CC1	i
Cc1cc(=O)n(CC(=O)NCc2ccc(Cl)cc2)c(N2CCCCC2)n1	i
COc1ccc(NC(=O)C2CCN(c3c(C#N)cnc4ccc(F)cc34)CC2)cc1OC	i
COc1cc(C(=O)Nc2ccc3c(c2)N(C(=O)C(C)C)CCC3)cc(OC)c1OC	i
NS(=O)(=O)c1ccc(CNC(=O)c2coc(NC(=O)Cc3cccs3)n2)cc1	i
COc1ccc(N2CCN(C(=O)C3(c4cccs4)CCCC3)CC2)cc1	i
CCC(C)c1ccc(OCCn2c(CO)nc3ccccc32)cc1 (centres undefined)	i
c1ccc(-c2nc3n(c2-c2ccc4c(c2)OCO4)CCC3)nc1	i
O=C(Nc1ccc(-n2nnc(C(=O)N3CCCC3)n2)cc1)c1ccccc1Br	i
CC(NC(=O)/C(C#N)=C1\N=C(NC(=O)c2cccs2)c2ccccc21)c1ccccc1 (centres undefined)	i
CC(C)(C)c1ccc(C(=O)N2CCCSCC2CN2CCOCC2)cc1 (centres undefined)	i
COc1ccc(CNC(=O)C(=O)NCCC2CCCCN2S(=O)(=O)c2ccc(C)cc2)cc1 (centres undefined)	i
O=C(c1c(F)cccc1F)N1CC(c2nc(-c3cccs3)no2)C1	i
COc1ccc2c(c1)c(CC(=O)NCc1ccc(Cl)nc1)c(C)n2C(=O)c1ccc(Cl)cc1	i
O=C(NCc1cccs1)N1CCC(Oc2cnccn2)CC1	i
COc1ccc(CCNC(=O)NCC#CCN2CCOCC2)cc1	i
Cc1noc(C)c1CN1CCN(C(=O)c2cnc3ccccc3n2)CC1	i
Cc1nc2cc(O)ccc2s1	i
C=CCn1c(=S)[nH]c2cc(C(=O)NCc3cccnc3)ccc2c1=O	i
O=C(COc1ccc(Cl)cc1)N(CCc1cccs1)C1CC1	i
CN(C)CCN(C(=O)c1ccc(F)cc1)c1nc2ccc(S(C)(=O)=O)cc2s1	i
Cc1ccc(Cl)cc1N1CCN(C(=O)C2CSCCC(=O)N2)CC1 (centres undefined)	i
CCOC(=O)N1CCN(C(c2ccccc2F)c2sc3nc(CC)nn3c2O)CC1 (centres undefined)	i
COc1ccc(/C=C2\SC(=S)N(c3ccc4c(c3)OCO4)C2=O)c(OC)c1	i
Cc1cnc(NC(=O)C2=C(O)c3ccccc3S(=O)(=O)N2C)s1	i
CC1CC(C)CN(S(=O)(=O)c2ccc(C3CCCCC3)cc2)C1 (centres undefined)	i
CS(=O)(=O)N1CCN(CC(O)c2cccs2)CC1 (centres undefined)	i
Cc1cccc(-n2ccnc(SCC(=O)Nc3ccc(Cl)cc3)c2=O)c1	i
O=C(CC12CC3CC(C1)CC(c1ccccc1)(C3)C2)NC1=NCCS1	i
O=C(NCc1cccc(Cl)c1)c1nnn(-c2cccc(Cl)c2)c1-c1ccncc1	i
COc1ccc(C(=O)Nc2nnc(-c3cc(C)ccc3C)o2)cc1	i
Cc1cc(C(O)CCNC(=O)C2CC=CCC2)c(C)o1 (centres undefined)	i
COCCOC(=O)c1c(C)n(C)c2ccc(OS(=O)(=O)c3ccc(F)cc3)cc12	i
O=C(Nc1n[nH]c2nnc(-c3cccnc3)cc12)C1CC1	i
CCn1nc(C(=O)N=c2sc3cccc(Cl)c3n2C)cc1C	i
COc1ccc(N2CC(c3nc(-c4ccc(N(C)C)cc4)no3)CC2=O)cc1OC (centres undefined)	i
CN(C)C(CNS(=O)(=O)c1ccc(N2CCCCS2(=O)=O)cc1)c1cn(C)c2ccccc12 (centres undefined)	i
O=C(NCC1(CO)CC1)c1ccc(OC(F)(F)F)cc1	i
Cn1c(=O)[nH]c(=O)c2c1nc1n2CCCN1c1ccc(S(N)(=O)=O)cc1	i
CC(C)(C)NC(=O)CSc1nnc(N2CCN(c3ccccc3)CC2)s1	i
COC(=O)c1ccc(C(=O)NCCCn2ccnc2-c2ccccc2)cc1	i
CCOc1ccc(/C=C/C(=O)Nc2ccccc2OC)cc1	i
O=C(Nc1nccs1)C1CCN(C(=O)Cc2c(F)cccc2Cl)CC1	i
Additional compounds:
SMILES	GIRK2 act
CC(C)c1ccc(OCC(=O)Nc2cc(C3CC3)nn2-c2nc3c(c(=O)[nH]2)CCC3)cc1	i
CCN1C(=O)c2cc(NC(=O)Nc3ccc(OC)c(OC)c3)ccc2Oc2ccccc21	i
CCCCCCCC/C=C\CCCCCCCC(=O)c1nc2ncccc2o1	i
O=C(c1nnn(-c2ccc(F)cc2)n1)N1CCN(Cc2ccc3c(c2)OCO3)CC1	i
COc1cccc(CC(=O)Nc2ccc(Cn3cnc(C(=O)Nc4cccc(OC)c4)c3)cc2)c1	i
CC(=O)c1cccc(NC(=O)CSc2nnc3cc(C)c4ccccc4n23)c1	i
COc1ccc(SCC2CCN(C(=O)c3ccc(F)c(F)c3)CC2)cc1	i
c1cncc(-c2nnc(-c3csc4c3CCCC4)o2)c1	i
O=C(NCCC(O)c1ccoc1)C(=O)NCc1ccc2c(c1)OCO2 (centres undefined)	i
CCc1cnc2c(c1SCC(=O)Nc1cccc(OC)c1)c(=O)n(C)c(=O)n2C	i
COc1ccc(S(=O)(=O)NCCC(O)c2cc(C)oc2C)c(C)c1 (centres undefined)	i
CCCCC[C@H](O)/C=C/[C@@H]1[C@H](C/C=C\CCCC(=O)O)[C@H](O)C[C@H]1O	i
C=C(C)Cn1c(=O)c2c(nc3n2CC(C)=NN3CC(N)=O)n(C)c1=O	i
O=C(Nc1cccs1)N1CCC2(CC1)OCCCO2	i
O=C(NCCn1cnc(-c2ccccc2)cc1=O)c1ccccc1Br	i
O=C1CCCC(=O)N1CCS(=O)(=O)NCC1CCN(Cc2ccccc2)CC1	i
CSCC(C)(O)CNC(=O)Nc1ccccc1F (centres undefined)	i
COc1ccc(SCC2CCN(C(=O)c3ccccc3SC)CC2)cc1	i
O=C(c1cc2ccccc2[nH]1)N1CCN(CCn2cccn2)CC1	i
Cc1cc(=O)[nH]c(-n2nc(-c3cccs3)cc2NC(=O)c2ccco2)n1	i

Laid out differently: entries from further up.
GIRK2 act | mol
i | COc1ccc(S(=O)(=O)NCCC(O)c2cc(C)oc2C)c(C)c1 (centres undefined)
i | CCCCC[C@H](O)/C=C/[C@@H]1[C@H](C/C=C\CCCC(=O)O)[C@H](O)C[C@H]1O
i | C=C(C)Cn1c(=O)c2c(nc3n2CC(C)=NN3CC(N)=O)n(C)c1=O
i | O=C(Nc1cccs1)N1CCC2(CC1)OCCCO2

(continued)
SMILES	GIRK2 act
Cc1ccc(NC(=O)CN2N=NC3C(=O)N(c4ccc(C)c(C)c4)C(=O)C32)cc1 (centres undefined)	i
O=C(Cc1cccs1)N1CCC(Cn2ccnc2-c2ccccc2)CC1	i
COCCN1CCC(NC(=O)c2cccn(C)c2=O)CC1	i
CCS(=O)(=O)c1ccc(-c2nnc(NC(=O)Nc3cccs3)o2)cc1	i
Cc1c(C)n2c3c(=O)[nH]c(=O)n(C)c3nc2n1CCN1CCN(CCc2ccccc2)CC1	i
Cc1noc(C)c1CC(=O)N1CCn2c1nc1ccccc12	i
C=CCCC(=O)Nc1nc2c(s1)COCC2	i
COc1ccc2c(COc3ccc4c(=O)c(-c5ccccc5)coc4c3)cc(=O)oc2c1	i
O=S(=O)(NCCOc1ccc2c(c1)OCO2)c1ccc(Cl)s1	i
CC(C)(C)C(=O)N1CCN(CCn2cccn2)CC1	i
COc1ccccc1N1CCN(c2nccnc2SCC(=O)NCc2ccc(C)cc2)CC1	i
COc1ccc(-n2c(C)nc3ccc(NC(=O)c4ccc(F)c(F)c4)cc3c2=O)cc1	i
Nc1c(-c2ccccn2)nsc1C(=O)N1CCN(c2cccc(Cl)c2)CC1	i
Cc1cccc(-c2nnc3ccc(NS(=O)(=O)c4ccc(Br)cc4)nn23)c1	i
Cc1cccc(NC(=O)CSc2nccc(N3CCN(c4ccccc4)CC3)n2)c1	i
Cc1cc(C(F)(F)F)c(C#N)c(SCCCC(=O)Nc2nccs2)n1	i
CCOC(=O)Cc1csc(NC(=O)C2CCN(c3ccc(-c4ccco4)nn3)CC2)n1	i
Cc1ccc(C)c(-c2csc3c(=O)n(CC(=O)OC(C)(C)C)cnc23)c1	i
COc1ccc(C)cc1S(=O)(=O)Nc1ccc(-n2nnc(C(N)=O)n2)cc1	i

Of the compounds above, these have a CF3 group.
SMILES	GIRK2 act
O=C(CCC(=O)c1ccccc1)NCC#CCOc1cccc(C(F)(F)F)c1	i
COc1ccc(-c2c(-c3ccc(OC)cc3O)ncnc2C(F)(F)F)cc1	i
O=C(NCC1(CO)CC1)c1ccc(OC(F)(F)F)cc1	i
Cc1cc(C(F)(F)F)c(C#N)c(SCCCC(=O)Nc2nccs2)n1	i
